ALR inh: inhibitors of human sulfhydryl oxidase ALR; P55789; purified ALR, DTT oxidation, H2O2 HRP-luminol luminescence; inhibition, % (no concentration beside the values); hit rate 3.8% among 290,000; AID 485317;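 active = mean and each replicate at 75% or more; inconclusive = only one of the two met; inactive = neither met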;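 also: stock transfer was 7.5 nL into about 7.5 µL; 0% = neutral wells and 100% = wells with inactivated enzyme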
Target sequence (P55789 whole entry, looked up): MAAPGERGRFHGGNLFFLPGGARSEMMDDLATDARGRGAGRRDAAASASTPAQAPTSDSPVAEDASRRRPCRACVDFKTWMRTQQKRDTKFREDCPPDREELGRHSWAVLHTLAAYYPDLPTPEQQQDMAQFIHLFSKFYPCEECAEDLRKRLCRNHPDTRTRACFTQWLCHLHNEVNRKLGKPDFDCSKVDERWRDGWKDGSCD
Vif A3G: HIV-1 Vif–A3G interaction blockers – biochemical, TR-FRET, GST-Vif 1-94, biotin-A3G peptide, dose response retest, primary screen (AID 1117319). TR-FRET GST-Vif / biotin-A3G peptide binding; higher % means a stronger effect; test concentration not given here; strong numbers were not always called active. inhibition, %, or IC50 in µM where a hit was titrated. hit rate 0.57% among 260,000;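 active = above the screen mean plus three standard deviations and confirmed in dose response; inconclusive = results disagree or hit not tested in dose response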;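 also: Vif residues 1-94 fused to GST binding biotinylated APOBEC3G peptide 110-148; 0% = full assay without inhibitor and 100% = GST in place of GST-Vif; retest series ran down from 100 µM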
Beta2AR agonist: activates human beta-2 adrenergic receptor causing internalization; Am2.2-beta2AR cells, FAP receptor internalization, flow cytometry; reference of the scale not given here; AID 504454; response, % (concentration not given with the values); hit rate 0.43% among 340,000;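 active = response above a set limit, near 3 SD of response in nonfluorescent compounds, cut at about 42% in these data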;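 also: stock transfer was 100 nL into about 11 µL; a reference agonist was the positive control; negative values mostly stem from fluorescent compounds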
Target sequence (P07550 whole entry, looked up): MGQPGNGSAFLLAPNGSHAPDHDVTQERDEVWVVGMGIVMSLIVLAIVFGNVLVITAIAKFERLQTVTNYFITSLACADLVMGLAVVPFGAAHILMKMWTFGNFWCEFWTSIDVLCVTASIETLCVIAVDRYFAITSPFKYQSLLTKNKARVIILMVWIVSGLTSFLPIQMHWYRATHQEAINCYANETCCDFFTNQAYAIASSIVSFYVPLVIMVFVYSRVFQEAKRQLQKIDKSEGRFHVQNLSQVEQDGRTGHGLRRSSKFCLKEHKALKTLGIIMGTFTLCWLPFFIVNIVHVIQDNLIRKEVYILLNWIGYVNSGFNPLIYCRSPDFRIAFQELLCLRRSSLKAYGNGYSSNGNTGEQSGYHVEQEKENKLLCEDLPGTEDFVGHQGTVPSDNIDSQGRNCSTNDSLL
LANA-H2B inh: blocks KSHV LANA binding to histone H2A/H2B; Q9QR71; inhibition, % (concentration not given with the values); cell-free LANA-H2A/H2B peptide, fluorescence polarization; hit rate 0.6% among 320,000; AID 2629; in the data active = inhibition mostly above about 10%, no sharp cut-off; inactive = mostly below about 6.7%;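 also: stock transfer was 7.5 nL into about 10 µL; 0% = median of vehicle wells and 100% = median of positive control wells; one replicate is shown; the record names a cut of 25% in any replicate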
RanGTP-Imp inh: disruptors of Ran-importin-beta complex formation – biochemical, FRET, CFP-Ran, YFP-importin-beta, homogeneous, primary screen; inhibition, % (concentration not given with the values); cell-free CFP-Ran/YFP-importin-beta FRET ratio; hit rate 1.1% among 300,000;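 active = most replicates above 15%; inconclusive = exactly half above 15%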;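 also: 0% = DMSO wells and 100% = Ran loaded with GDP instead of GTP; wells of about 40 µL received 100 nL stock; the first replicate is given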
HNF4A DNA FP: change in binding of human HNF4 alpha to DNA; AID 1224865; HNF4a-FITC DNA binding, fluorescence polarization, 1 h; activity change, % at 10 µM; P41235; hit rate 0.3% among 360,000; in the data active = activity change above about 30%, passing the limit was not always enough;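 also: controls were the assay level and a saturating level of protein; the project sought stronger binding though the title names inhibitors; some compounds called inactive have numbers as strong as hits; positive values seem to mean higher polarization but the record does not say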
Calb FLC: affects C. albicans growth with fluconazole; hit rate 0.57% among 300,000; C. albicans CaCi-2 (fluconazole-resistant clinical isolate) + fluconazole, Alamar Blue growth, 48 h; growth inhibition, % (concentration not given with the values);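 active = most replicates above 75%; inconclusive = exactly half above 75%; inactive = most below 75%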;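 also: all wells also contain fluconazole at 8 µg/ml as a sub-toxic cotreatment; 0% = median of DMSO wells and 100% = median of geldanamycin control wells; wells of about 8 µL received 7.5 nL stock; the first replicate is given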
Active calls of the source: *; ? = inconclusive; / = not tested or not shown.

Values run as follows: ALR inh, Vif A3G, Beta2AR agonist, LANA-H2B inh, RanGTP-Imp inh, HNF4A DNA FP, Calb FLC
1. CC1=[N+](C)N(c2ccccc2)C(=O)C1N=Cc1ccccc1Cl (configuration not stated)
    77*, -2%, 6, -1.3, 4.1, -1.6, -24
2. COc1ccccc1NC(=S)N1CCC(C(=O)c2ccc(F)cc2)CC1
    -15, -12%, 0, 0.7, -0.9, -2.1, 23
3. COc1ccc(/C=C/C(=O)c2cc(F)ccc2OC(=O)c2ccccc2C)cc1OC
    /, -2%, 25, -0.9, 2.7, -0.6, 25
4. CC(Oc1cc(F)ccc1[N+](=O)[O-])C(=O)N(C)CC(=O)Nc1ccccc1C(F)(F)F (configuration not stated)
    1, 2%, 6, -3.0, 5.1, 2.0, -14
5. CCC(=O)N1CCc2cc(S(=O)(=O)N(CC)c3cccc(C)c3)ccc21
    2, -4%, -13, 2.0, -1.6, 2.0, 0
6. COc1ccc(C(=O)NCc2nnc(SCC(=O)N3CCc4ccccc43)n2C2CCCCC2)cc1
    -7, /, -9, 0.6, -4.6, 0.0, -4
7. Cc1ccc(C(=O)CC(Nc2ccc(F)cc2)c2ccccc2)cc1 (configuration not stated)
    /, /, -4, /, -5.4, -2.9, 5
8. NC(=O)CSc1ncc(-c2ccc([N+](=O)[O-])cc2)[nH]1
    25, -5%, -1, -2.7, 4.6, 5.1, -1
9. c1ccc(CCNc2nc(-c3ccccn3)nc3ccccc23)cc1
    7, /, 1, -3.2, 3.4, -2.2, 3
10. Cc1cc(C)c(NC(=O)CNC(=O)c2ccc3ncsc3c2)c(C)c1
    -6, /, 0, -2.4, /, 7.0, /
11. Cc1ccc(NC(=O)c2ncn(CC(=O)NCc3nc4ccccc4[nH]3)n2)cc1C
    /, 3%, -8, /, /, 4.3, /
12. Fc1ccc(NC(=S)Nc2cccc3ccccc23)cc1F
    -28, -1%, 5, -6.2, 4.6, -0.1, 4
13. COc1ccc(-c2csc3nc(C(C)C)oc(=O)c23)cc1OC
    41, -2%, -4, 4.7, -0.5, -3.8, -2
14. O=C(c1ccc(Cl)cc1)n1c(NCc2ccccc2)n[nH]c1=S
    /, 1%, 2, 5.1, ?, 2.9, -9
15. O=Cc1ccc(N2CCCCCC2)cc1
    /, -3%, 3, 3.0, 1.0, 1.3, -2

Next part; it opens with the 4 that closed the last part.
Values run as follows: ALR inh, Vif A3G, Beta2AR agonist, LANA-H2B inh, RanGTP-Imp inh, HNF4A DNA FP, Calb FLC
12. Fc1ccc(NC(=S)Nc2cccc3ccccc23)cc1F
    -28, -1%, 5, -6.2, 4.6, -0.1, 4
13. COc1ccc(-c2csc3nc(C(C)C)oc(=O)c23)cc1OC
    41, -2%, -4, 4.7, -0.5, -3.8, -2
14. O=C(c1ccc(Cl)cc1)n1c(NCc2ccccc2)n[nH]c1=S
    /, 1%, 2, 5.1, ?, 2.9, -9
15. O=Cc1ccc(N2CCCCCC2)cc1
    /, -3%, 3, 3.0, 1.0, 1.3, -2
16. CCN(CC)c1ccc(C=C(c2nnnn2-c2ccccc2)c2nnnn2-c2ccccc2)cc1
    1, 2%, 6, -12, -14, 30, -2
17. CC1(C)Cc2c(sc3c2c(=O)n(-c2cccc(Cl)c2)c(=O)n3CC(N)=O)CO1
    -1, 0%, 1, -3.1, ?, 1.1, -1
18. COc1ccc(C(=O)NNC(=O)Cc2nc3nc(C)cc(C)n3n2)cc1
    /, /, -8, -2.1, -3.1, -5.1, 2
19. CCC(C)Nc1nc(Cl)nc(NCCOc2ccccc2)n1 (configuration not stated)
    0, /, 3, -1.0, -0.9, -0.1, 6
20. CCOc1ccc(N(C)S(=O)(=O)c2ccc(C)c(C(=O)NCc3cccs3)c2)cc1
    0, -2%, -3, -374, /, 0.8, /
21. N#Cc1c(C(F)(F)F)cc(Cc2ccccc2)nc1SCC(=O)NCC(=O)O
    -3, /, 2, -1.5, -2.1, 0.8, -8
22. Cc1nc2ccccc2c2oc(C(=O)NCCCN3CCC(C)CC3)cc12
    -10, -3%, 10, -2.8, 34*, -0.5, -5
23. O=C1C(=O)N(CC2CCCO2)C(c2ccccc2[N+](=O)[O-])/C1=C(/O)c1ccccc1 (configuration not stated)
    9, 8%, -1, 1.3, 1.0, -1.4, 2
24. CCN(Cc1ccccc1)C(=O)CN1C(=O)NC2(CC(C)CC(C)(C)C2)C1=O (configuration not stated)
    -5, -6%, 1, 4.7, 6.1, 3.7, 4
25. NC(=O)c1ccsc1NC(=O)CCc1ccccc1
    5, /, 0, -7.4, ?, 1.7, 14
26. CCNC(=O)O/N=C1\CCCCC1c1ccc([N+](=O)[O-])cc1[N+](=O)[O-] (configuration not stated)
    -135, 6%, -1, 0.1, -1.7, 6.5, 1
27. CC1(C)CC(N=C2C([N+](=O)[O-])=CC=C3C2=NC2(CCCCC2)N3O)CC(C)(C)N1
    -25, 17%, 2, 0.8, 6.8, 8.7, 5
28. CCN1CCN(c2ccc(S(=O)(=O)N3CCCCC3)cc2NC(=O)c2cccc(NC(C)=O)c2)CC1
    -18, -5%, 3, 1.8, -7.2, 2.2, -9
29. COC(=O)CC1C(=O)NCCN1C(=S)NC(=O)CCc1ccccc1 (configuration not stated)
    -1, 5%, 6, -4.9, 1.3, -1.3, -2
30. O=C(NCC1CCCO1)/C(=C\c1cccc([N+](=O)[O-])c1)NC(=O)c1ccccc1 (configuration not stated)
    -10, 7%, 4, -5.0, /, -1.0, 7

Next section (two carried over from the part before).
Values run as follows: ALR inh, Vif A3G, Beta2AR agonist, LANA-H2B inh, RanGTP-Imp inh, HNF4A DNA FP, Calb FLC
29. COC(=O)CC1C(=O)NCCN1C(=S)NC(=O)CCc1ccccc1 (configuration not stated)
    -1, 5%, 6, -4.9, 1.3, -1.3, -2
30. O=C(NCC1CCCO1)/C(=C\c1cccc([N+](=O)[O-])c1)NC(=O)c1ccccc1 (configuration not stated)
    -10, 7%, 4, -5.0, /, -1.0, 7
31. CCOc1ccc(/C=N/O)cc1
    3, 4%, 1, -4.9, 1.5, 1.1, -7
32. O=C(N/N=C/c1ccc([N+](=O)[O-])o1)c1cc(-c2ccc(-c3ccccc3)cc2)nc2ccccc12
    -5, /, 17, 0.7, 4.9, -4.8, -14
33. Cc1ccc(-c2cc(=O)[nH]c(NCc3ccccc3)n2)cc1
    -7, /, 6, -2.6, 5.0, -0.7, -19
34. O=C(CN1CCN(C(=O)N2CCOCC2)CC1)Nc1ccc(Br)cc1
    1, -5%, -2, -1.8, -1.0, -3.8, -6
35. COc1ccccc1OCC(=O)Nc1cc(Cl)ccc1Oc1ccccc1
    0, 15%, -3, -5.3, -2.4, -2.2, -2
36. CC1=CC2=C(OC1N(C)C)c1cccc3cccc(c13)C2=O (configuration not stated)
    -11, 24%, 12, 7.4, 1.7, -63, 96*
37. FC(F)(F)c1cccc(CON=C2CCN(c3ncc(C(F)(F)F)cc3Cl)CC2)c1
    /, -4%, 5, 2.2, 8.7, 29, 16
38. COC(=O)C1=C(COc2ccccc2)NC(=O)NC1c1ccc2ccccc2c1 (configuration not stated)
    -5, /, /, 1.2, 1.6, /, 3
39. CCc1ccc(NC(=S)Nc2cc(OC)c(NC(=O)C(C)C)cc2OC)cc1
    -6, 14%, -10, 4.7, 4.9, 2.6, -22
40. Cc1cc(CSc2ccccc2)ccc1NC(=O)COc1ccccc1
    -3, 15%, 0, -3.3, 0.9, -0.7, -7
41. CC(=O)Nc1ccc(C(=O)CSc2cc(C)c3cccc(C)c3n2)cc1
    /, -110%, -7, /, -5.1, -1.5, -24
42. Cc1cccc(-c2csc(NC(=O)c3cnccn3)c2C(=O)OC(C)C)c1
    3, -3%, 2, -0.7, -0.2, 12, -5
43. CC(=O)c1ccc(S(=O)(=O)Nc2ccc(-c3ccc4nncn4n3)cc2)cc1
    -13, 9%, 0, -5.7, -3.8, -3.5, -2
44. Cc1ccc2[nH]cc(C(=O)CN3CCN(C)CC3)c2c1
    -4, 27%, 1, -0.6, 7.0, -3.3, -4
45. COc1ccc2oc(C(=O)OCc3nnc(-c4ccccc4)o3)c(C)c2c1
    /, 3%, 10, -4.5, /, 1.0, 10
46. O=C(Nc1ccccc1)NC1CCN(Cc2c(F)cccc2Cl)CC1
    -3, -3%, 0, 0.8, -2.3, -0.2, -3
47. Cc1cc2ncn(CCCCOc3ccccc3)c2cc1C
    0, 1%, 6, -11, 1.7, -0.4, -10
48. Cc1cc(-c2ccc(S(=O)(=O)Nc3ccc(C#N)cc3)s2)on1
    -7, /, -1, 2.4, 0.1, -0.4, 52
49. Cc1cc(C)cc(C(=O)NCC(=O)OCc2c(C)noc2C)c1
    -8, 9%, 4, 0.6, 1.0, 2.2, 6
50. COc1ccc(CNC(=O)C2(CC3CC(c4ccccc4)=NO3)CCN(C(=O)Cc3ccc(F)cc3)CC2)cc1 (configuration not stated)
    /, /, -4, -1.2, 0.0, 2.1, 9
51. CN1CCN(/C=N/C2=C(C#N)C(c3ccccc3)C3=C(CC(C)(C)CC3=O)O2)CC1 (configuration not stated)
    /, 9%, -2, 1.4, 0.7, -2.9, -13
52. OC(COc1ccc2cc(Br)ccc2c1)CN1CCOCC1 (configuration not stated)
    -31, -5%, 17, 6.9, 1.7, 1.8, 10
53. O=S1(=O)CCN(C(CO)c2ccccc2)CC1 (configuration not stated)
    -11, 32%, 1, -4.4, -3.7, -0.4, 8
54. CCCCOCCCN1CC(=O)N2[C@@H](Cc3c([nH]c4ccccc34)C2(C)C)C1=O
    -3, 1%, -12, 0.9, 5.9, 5.4, 9
55. O=C(Nc1ccc(NC(=O)c2ccco2)nc1)c1cccc(F)c1
    -4, /, -2, -0.4, -0.3, -3.3, -5
56. COC(=O)c1cc(C)nc(N)c1C#N
    -2, 31%, -1, -7.3, 2.1, 5.6, -2
57. O=C(Cn1cc(C(F)(F)F)ccc1=O)NCc1ccc(F)cc1
    /, /, -1, 0.8, 5.1, 2.3, 6
58. COC(=O)c1cc(Br)c(=O)n(-c2ccccc2OC)c1
    0, -4%, -1, 1.9, 1.8, -2.6, -5
59. O=C(CNC(=O)c1ccccc1Br)N/N=C/c1ccco1
    -3, /, -10, -1.9, 1.3, 1.5, 1
60. O=C1C2C3C=CC(C3)C2C(=O)N1/N=C/c1cn(Cc2ccc(F)cc2)c2ccccc12 (configuration not stated)
    1, 1%, -2, 0.6, 3.0, -0.3, 2
61. COc1ccc(OCCCCc2c(C)n[nH]c2C)cc1
    -3, /, 2, 1.3, -2.2, -3.9, 1
62. Cc1cccn2cc(-c3ccc(S(=O)(=O)N4CCOCC4)cc3)nc12
    -3, -4%, 2, 1.7, 0.7, 4.5, 2
63. CC1(C)CC(=NO)CC(C)(C)N1
    22, 5%, 1, 1.7, 0.7, -0.3, 2
64. COc1cccc2c3c(c(C)nc12)CCN3c1ccccc1
    -5, /, 6, 6.2, 1.7, 0.1, -40
